# Assay outcomes: PubChem BioAssay, Broad Institute
# UUG fidelity = modulators of yeast start codon fidelity, primary screen, whole organism, S. cerevisiae, single point, plate reader | S. cerevisiae UUG-firefly luciferase reporter, luminescence/redox ratio | activity score, % at 18.7 µM | 350,000 tested, 0.13% active | AID 602363, 2012;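 active = replicate mean at a twofold rise or more, about +100% in these data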;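 also: firefly luciferase made from a UUG start codon reports start codon fidelity; reporter light over untreated wells divided by growth signal over untreated wells; some hits fall short of that in this replicate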
# Env fusion inh = inhibitors of HIV-1 Env-driven cell-cell fusion, primary screen, HeLa-JRFL effector, CEM21 target cells, luciferase. AID 651610, 2012. 360,000 tested, 1.1% active. inhibition, % at 12.3 µM;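 active = mean replicate inhibition score of at least 50 and every replicate individually at or above 50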;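 also: 0% = plate neutral controls and 100% = maraviroc near 300 nM; one replicate is shown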
# * hit, by the source's call; [ ] = another dose, or the depositor's remark. An excerpt; the hit share may differ from the screen's.
SMILES,UUG fidelity,Env fusion inh
C[C@@H]1CN([C@@H](C)CO)C(=O)c2cccc(NC(=O)c3ccncc3)c2O[C@@H]1CN(C)Cc1ccc(C(=O)Nc2ccccc2N)cc1,-6.2,-50.4[16.7 µM]
C[C@H]1CN([C@@H](C)CO)C(=O)Cc2cc(N(C)C)ccc2O[C@H]1CN(C)C(=O)Nc1ccc2c(c1)OCO2,-16.7,-5.5[16.7 µM]
COCC#Cc1cnc2c(c1)C(=O)N([C@H](C)CO)C[C@@H](C)[C@H](CN(C)Cc1ccc(F)cc1)O2,-11.0,-16.9[16.7 µM]
CN1C(=O)c2cc(NC(=O)c3cscn3)ccc2OC[C@@H]2O[C@H](CC(=O)NCC3CC3)CC[C@H]21,-1.1,-14.0[16.7 µM]
Cc1cc(C(=O)Nc2cccc3c2O[C@H](CN(C)CC2CCCCC2)[C@H](C)CN([C@@H](C)CO)C3=O)n(C)n1,-11.9,-13.7[16.7 µM]
COC(=O)C[C@H]1CC[C@@H]2[C@@H](COc3ccc(NS(=O)(=O)c4ccccc4F)cc3C(=O)N2C)O1,4.5,-12.2[16.7 µM]
CCCC#Cc1ccc2c(c1)O[C@H](CN(C)C(=O)c1ccccc1)[C@@H](C)CN([C@@H](C)CO)S2(=O)=O,4.8,-8.6[16.7 µM]
C[C@@H]1CCCCO[C@@H](CN(C)C(=O)CCCN(C)C)[C@@H](C)CN([C@H](C)CO)C(=O)c2cc(NS(=O)(=O)c3cn(C)cn3)ccc2O1,-2.9,-14.0[16.7 µM]
CO[C@@H]1CN(C)C(=O)c2ccc(NC(=O)Nc3ccccc3)cc2OC[C@H](C)N(C(=O)CC2CC2)C[C@@H]1C,2.9,12.3[16.7 µM]
Cc1noc(C)c1S(=O)(=O)Nc1ccc2c(c1)C(=O)N([C@@H](C)CO)C[C@@H](C)[C@H](CN(C)Cc1ccc(-c3ccccc3)cc1)O2,-0.8,-12.1[16.7 µM]
Cc1noc(C)c1NC(=O)Nc1ccc2c(c1)CC(=O)N([C@H](C)CO)C[C@H](C)[C@H](CN(C)C(=O)Nc1ccccc1)O2,5.0,2.7[16.7 µM]
Cc1noc(C)c1NC(=O)Nc1cccc2c1O[C@@H](CN(C)Cc1ccc3c(c1)OCO3)[C@H](C)CN([C@H](C)CO)C2=O,-5.6,-44.3[16.7 µM]
C[C@@H]1CN([C@H](C)CO)C(=O)c2cc(NC(=O)Cc3cn(C)c4ccccc34)ccc2O[C@H]1CN(C)S(C)(=O)=O,30.4,-0.2[16.7 µM]
CC(C)NC(=O)NCC[C@@H]1CC[C@H](NC(=O)c2ccc(F)cc2)[C@H](CO)O1,-2.6,-2.9[16.7 µM]
COc1ccc(C#Cc2ccc3c(c2)O[C@@H](CN(C)C(=O)NC2CCCCC2)[C@H](C)CN([C@H](C)CO)S3(=O)=O)cc1,-2.3,20.7[16.7 µM]
O=C(Cc1cccnc1)N[C@H]1CC[C@@H](CCn2cc(-c3ccccc3F)nn2)O[C@@H]1CO,-9.3,2.6[16.7 µM]
CC(C)NC(=O)N(C)C[C@H]1Oc2ccc(NC(=O)Nc3ccc(C(F)(F)F)cc3)cc2CC(=O)N([C@@H](C)CO)C[C@@H]1C,1.3,10.4[16.7 µM]
C[C@@H]1CCCCO[C@@H](CN(C)C(=O)Nc2ccc(C(F)(F)F)cc2)[C@H](C)CN([C@H](C)CO)C(=O)c2cc(NC(=O)NC3CCCCC3)ccc2O1,0.5,38.1[16.7 µM]
C[C@@H]1CN([C@@H](C)CO)S(=O)(=O)c2ccc(C#C[C@@H](C)O)cc2O[C@H]1CN(C)Cc1cccnc1,-1.7,-6.2[16.7 µM]
CC(C)NC(=O)Nc1ccc2c(c1)C(=O)N([C@H](C)CO)C[C@@H](C)[C@H](CN(C)Cc1ccccc1)O2,-11.5,-10.9[16.7 µM]
Cc1noc(C)c1S(=O)(=O)Nc1ccc2c(c1)C(=O)N([C@@H](C)CO)C[C@@H](C)[C@@H](CN(C)S(=O)(=O)c1cccs1)OCCCC[C@H](C)O2,0.2,-26.6[16.7 µM]
COc1ccc(S(=O)(=O)Nc2ccc3c(c2)C(=O)N([C@H](C)CO)C[C@@H](C)[C@@H](CN(C)CC2CC2)O3)cc1,0.5,-4.0[16.7 µM]
CO[C@H]1CN(C)C(=O)c2ccc(NS(=O)(=O)CC(F)(F)F)cc2OC[C@@H](C)N(C(=O)c2ccc3c(c2)OCO3)C[C@@H]1C,-2.2,-8.5[16.7 µM]
Cc1ccc(S(=O)(=O)NCC[C@H]2CC[C@H](NC(=O)NC(C)C)[C@@H](CO)O2)cc1,-0.2,-12.4[16.7 µM]
CO[C@@H]1CN(C)C(=O)c2cc(NC(=O)Nc3cccc(F)c3)ccc2OC[C@@H](C)N(C(C)=O)C[C@@H]1C,0.3,8.9[16.7 µM]
C[C@@H]1CN([C@@H](C)CO)C(=O)c2cc(NC(=O)CCC(F)(F)F)ccc2O[C@@H](C)CCCCO[C@@H]1CN(C)S(=O)(=O)c1ccc(F)cc1,31.7,-3.2[16.7 µM]
COc1ccc(NC(=O)N(C)C[C@H]2OCCCC[C@@H](C)Oc3ccc(NS(=O)(=O)c4ccccc4)cc3C(=O)N([C@@H](C)CO)C[C@H]2C)cc1,15.7,0.3[16.7 µM]
COCC#Cc1ccc2c(c1)O[C@@H](CN(C)C(=O)C1CC1)[C@@H](C)CN([C@H](C)CO)S2(=O)=O,-0.9,19.2[16.7 µM]
C[C@H](CO)N1C[C@H](C)[C@H](CN(C)C(=O)Nc2ccccc2)Oc2c(NS(=O)(=O)c3cn(C)cn3)cccc2C1=O,-1.4,-14.2[16.7 µM]
CCC(=O)N[C@@H]1CC[C@H](CCNC(=O)Nc2ccc(F)cc2)O[C@@H]1CO,-3.5,-20.3[16.7 µM]
CC1=C([C@H](O)CCc2ccccc2)[C@H](CO)n2c(=O)n(-c3ccccc3)c(=O)n2C1,-3.2,-3.8[16.7 µM]
C[C@@H]1CN([C@@H](C)CO)C(=O)Cc2cc(NC(=O)CCCCCC(=O)Nc3ccccc3N)ccc2O[C@H]1CN(C)C(=O)Nc1ccc(C(F)(F)F)cc1,-7.6,-5.7[16.7 µM]
CC(=O)N(C)C[C@H]1Oc2ncc(-c3ccc(C)cc3)cc2C(=O)N([C@@H](C)CO)C[C@H]1C,-5.6,3.3[16.7 µM]
CCC(=O)N1C[C@@H](C)[C@@H](OC)CN(C)C(=O)c2cc(NS(=O)(=O)CC)ccc2OC[C@@H]1C,-6.4,7.6[16.7 µM]
COc1ccc(C(=O)Nc2ccc3c(c2)OC[C@H](C)N(C)C[C@H](C)[C@H](OC)CN(C)C3=O)cc1,-2.9,-4.2[16.7 µM]
O=C(N[C@@H]1CC[C@H](CCNC(=O)C2CCOCC2)O[C@H]1CO)c1ccccn1,-13.1,7.1[16.7 µM]
C[C@@H]1CN([C@@H](C)CO)C(=O)Cc2cc(NS(=O)(=O)c3ccccc3)ccc2O[C@@H]1CN(C)C(=O)Nc1cccc2ccccc12,22.0,-5.1[16.7 µM]
C[C@H](CO)N1C[C@H](C)[C@@H](CN(C)C(=O)C2CCCCC2)Oc2cc(-c3ccncc3)ccc2S1(=O)=O,11.6,-3.8[16.7 µM]
COC(=O)C[C@H]1CC[C@@H]2[C@H](COc3ccc(NS(=O)(=O)c4ccccc4F)cc3C(=O)N2C)O1,4.8,1.9[16.7 µM]
COc1ccc(S(=O)(=O)N(C)C[C@H]2Oc3c(NS(C)(=O)=O)cccc3C(=O)N([C@H](C)CO)C[C@@H]2C)cc1,-1.4,3.6[16.7 µM]
C[C@H]1CN([C@@H](C)CO)C(=O)Cc2cc(NC(=O)Nc3ccc(C(F)(F)F)cc3)ccc2O[C@H]1CN(C)Cc1ccccc1,1.3,21.4[16.7 µM]
COc1cccc(S(=O)(=O)N[C@H]2CC[C@H](CC(=O)NC3CCC3)O[C@@H]2CO)c1,-10.8,-16.8[16.7 µM]
N#C[C@@H]1N[C@@H](CO)[C@@H]1c1ccccc1,-2.1,3.6[16.7 µM]
Cc1ccc(S(=O)(=O)N(C)C[C@@H]2Oc3ccc(NC(=O)Cc4cn(C)c5ccccc45)cc3C(=O)N([C@H](C)CO)C[C@H]2C)cc1,1.7,-2.3[16.7 µM]
N#C[C@@H]1[C@@H](c2ccc(C#Cc3cccnc3)cc2)[C@@H](CO)N1C(=O)NC1CCCCC1,-15.3,5.8[16.7 µM]
C[C@@H](O)C#Cc1cnc2c(c1)C(=O)N([C@@H](C)CO)C[C@H](C)[C@H](CN(C)Cc1ccccn1)O2,-17.8,8.7[16.7 µM]
O=C(O)C[C@H]1CC[C@H](NC(=O)Nc2cc(F)ccc2F)[C@@H](CO)O1,-16.2,-30.4[16.7 µM]
COc1cccc(C#Cc2cnc3c(c2)C(=O)N([C@H](C)CO)C[C@@H](C)[C@H](CN(C)C(=O)C2CCCCC2)O3)c1,-0.9,28.4[16.7 µM]

# 5 of the entries above in order of the UUG fidelity value, low to high.
SMILES,UUG fidelity,Env fusion inh
COc1ccc(S(=O)(=O)N(C)C[C@H]2Oc3c(NS(C)(=O)=O)cccc3C(=O)N([C@H](C)CO)C[C@@H]2C)cc1,-1.4,3.6[16.7 µM]
C[C@H]1CN([C@@H](C)CO)C(=O)Cc2cc(NC(=O)Nc3ccc(C(F)(F)F)cc3)ccc2O[C@H]1CN(C)Cc1ccccc1,1.3,21.4[16.7 µM]
COC(=O)C[C@H]1CC[C@@H]2[C@H](COc3ccc(NS(=O)(=O)c4ccccc4F)cc3C(=O)N2C)O1,4.8,1.9[16.7 µM]
C[C@H](CO)N1C[C@H](C)[C@@H](CN(C)C(=O)C2CCCCC2)Oc2cc(-c3ccncc3)ccc2S1(=O)=O,11.6,-3.8[16.7 µM]
C[C@@H]1CN([C@@H](C)CO)C(=O)Cc2cc(NS(=O)(=O)c3ccccc3)ccc2O[C@@H]1CN(C)C(=O)Nc1cccc2ccccc12,22.0,-5.1[16.7 µM]

# New compounds follow
SMILES,UUG fidelity,Env fusion inh
Cc1ccc(S(=O)(=O)N(C)C[C@H]2Oc3cc(Br)ccc3S(=O)(=O)N([C@@H](C)CO)C[C@H]2C)cc1,3.2,41.4[16.7 µM]
O=C(Cc1ccncc1)NCC[C@@H]1CC[C@@H](NC(=O)C2CCCCC2)[C@@H](CO)O1,3.7,1.5[16.7 µM]
C[C@H](CO)N1C[C@H](C)[C@H](CN(C)CC2CCCCC2)Oc2c(NC(=O)Nc3ccc(F)cc3)cccc2C1=O,9.1,-60.8[16.7 µM]
C[C@@H]1CN([C@H](C)CO)C(=O)Cc2cc(NC(=O)Nc3ccc(F)cc3)ccc2O[C@@H]1CN(C)C(=O)Nc1cccc2ccccc12,10.5,-2.2[16.7 µM]
O=C(C[C@@H]1C[C@@H]2c3cc(NC(=O)Cc4ccncc4)ccc3O[C@@H]2[C@H](CO)O1)NCC1CC1,1.8,20.2[16.7 µM]
C[C@@H]1CN([C@H](C)CO)S(=O)(=O)c2ccc(/C=C/c3ccccc3)cc2O[C@@H]1CN(C)C,10.8,-3.0[16.7 µM]
O=C(C[C@@H]1CC[C@@H]2[C@H](COC[C@@H](O)CN2S(=O)(=O)c2ccc(F)cc2)O1)NCC1CCCCC1,2.3,3.0[16.7 µM]
COc1ccc(NC(=O)Nc2cccc3c2O[C@H](CN(C)Cc2ccc(C(=O)Nc4ccccc4N)cc2)[C@@H](C)CN([C@@H](C)CO)C3=O)cc1,-0.5,-59.0[16.7 µM]
C[C@@H]1CN([C@@H](C)CO)C(=O)c2cccc(NC(=O)C3CC3)c2O[C@@H]1CN(C)Cc1ccc(C(F)(F)F)cc1,-5.5,-45.7[16.7 µM]
CO[C@@H]1CN(C)C(=O)c2cc(NC(=O)Nc3c(C)noc3C)ccc2OC[C@@H](C)NC[C@H]1C,-4.5,-6.0[16.7 µM]
CN1C(=O)c2cc(NC(=O)c3ccc(F)cc3)ccc2OC[C@H]2O[C@@H](CC(=O)N3CCOCC3)CC[C@@H]21,9.6,-4.0[16.7 µM]
C[C@H](CO)N1C[C@H](C)[C@H](CN(C)C(=O)C2CCCCC2)Oc2cc(-c3cccnc3)ccc2S1(=O)=O,-4.4,15.2[16.7 µM]
Cc1ccc(-c2cnc3c(c2)C(=O)N([C@H](C)CO)C[C@H](C)[C@H](CN(C)Cc2ccccc2F)O3)cc1,-13.9,-7.4[16.7 µM]
COc1ccc(NC(=O)Nc2ccc3c(c2)C(=O)N([C@H](C)CO)C[C@@H](C)[C@H](CN(C)C(=O)CCCN(C)C)OCCCC[C@@H](C)O3)cc1,9.3,-24.6[16.7 µM]
O=C(C[C@H]1C[C@@H]2c3cc(NC(=O)NC4CCCCC4)ccc3O[C@@H]2[C@H](CO)O1)NCc1ccccc1,-8.0,5.9[16.7 µM]
C[C@@H]1CN([C@H](C)CO)C(=O)c2cc(NC(=O)Cc3cn(C)c4ccccc34)ccc2O[C@@H]1CN(C)Cc1ccc(Oc2ccccc2)cc1,6.8,5.2[16.7 µM]
COc1ccccc1-c1cnc2c(c1)C(=O)N([C@@H](C)CO)C[C@H](C)[C@H](CN(C)C(C)=O)O2,1.0,7.8[16.7 µM]
CC(C)NC(=O)Nc1ccc2c(c1)CC(=O)N([C@@H](C)CO)C[C@H](C)[C@H](CN(C)CC1CCCCC1)O2,44.3,-5.1[16.7 µM]
C[C@H]1CN([C@@H](C)CO)C(=O)Cc2cc(NS(C)(=O)=O)ccc2O[C@@H]1CN(C)Cc1ccc(C(F)(F)F)cc1,-6.6,-0.9[16.7 µM]
C[C@H](CO)N1C[C@H](C)[C@H](CN(C)C(=O)C2CCCCC2)Oc2cc(C#Cc3ccncc3)ccc2S1(=O)=O,-2.6,9.3[16.7 µM]
C[C@H]1CCCCO[C@H](CN(C)Cc2ccc(Cl)c(Cl)c2)[C@@H](C)CN([C@@H](C)CO)C(=O)c2cc(NC(=O)Nc3ccc(C(F)(F)F)cc3)ccc2O1,-12.7,14.7[16.7 µM]
C[C@H]1CCCCO[C@H](CN(C)C(=O)Nc2cccc3ccccc23)[C@@H](C)CN([C@@H](C)CO)C(=O)c2cc(NC(=O)CCCN(C)C)ccc2O1,-3.4,-8.2[16.7 µM]
